# From PubChem
# UCH37 inh – blocks the human deubiquitinase UCH37 | Q9Y5K5 | purified proteasome/UCH37, Ub-AMC cleavage fluorescence | inhibition, % (concentration not given with the values) | 330,000 compounds, 0.33% hits | AID 588478;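 active means mean of two replicates above 20%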;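 further: 0% = compound-free wells with enzyme and 100% = wells lacking proteasome; stock transfer was 100 nL into about 20 µL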
#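 system = Proteasome-associated human UCH37 deubiquitinase | amount = 0.15 nM proteasome as dispensed | medium = pH 7.4 Tris-HCl (50 mM) with ovalbumin, ATP-MgCl2, DTT | incubation = 30 min preincubation with enzyme, 25 min cleavage at room temperature | detection = AMC fluorescence 355/460 nm | read-out basis = percent inhibition | controls = no-proteasome and no-compound wells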
# ALR H2O2 inh – human ALR oxidase inhibition via reduced H2O2; P55789; purified ALR, DTT oxidation, H2O2 HRP-luminol luminescence; inhibition, % (concentration not given with the values); 290,000 compounds, 3.8% hits; AID 485317;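 active means mean and each replicate at 75% or more; inconclusive means only one of the two met; inactive means neither met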;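 further: stock transfer was 7.5 nL into about 7.5 µL; 0% = neutral wells and 100% = wells with inactivated enzyme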
# FGF22 binding – FGF22 (human) thermal shift binding | calls only at 9.99 µM | 340,000 compounds, 1.5% hits | recombinant FGF22 thermal shift, SYPRO orange fluorescence; percent of sucrose octasulfate shift, DMSO zero | AID 651658;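 active means melting point raised past a set limit in the mean and every replicate; inconclusive means no clear call; three in four hits are not shown here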
# Target sequence (Q9HCT0 whole entry, looked up): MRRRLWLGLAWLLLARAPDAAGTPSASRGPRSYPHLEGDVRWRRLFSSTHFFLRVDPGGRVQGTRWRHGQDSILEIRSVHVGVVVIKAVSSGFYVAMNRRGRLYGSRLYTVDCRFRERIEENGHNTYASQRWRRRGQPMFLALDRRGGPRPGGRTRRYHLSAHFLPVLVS
# Beta2AR agonist – agonists of human beta-2 adrenergic receptor inducing internalization; response, % (test concentration not listed); P07550; Am2.2-beta2AR cells, FAP receptor internalization, flow cytometry; reference of the scale not given here; 340,000 compounds, 0.43% hits;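 active means response above a set limit, near 3 SD of response in nonfluorescent compounds, cut at about 42% in these data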;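 further: stock transfer was 100 nL into about 11 µL; a reference agonist was the positive control; negative values mostly stem from fluorescent compounds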
# Target sequence (P07550 whole entry, looked up): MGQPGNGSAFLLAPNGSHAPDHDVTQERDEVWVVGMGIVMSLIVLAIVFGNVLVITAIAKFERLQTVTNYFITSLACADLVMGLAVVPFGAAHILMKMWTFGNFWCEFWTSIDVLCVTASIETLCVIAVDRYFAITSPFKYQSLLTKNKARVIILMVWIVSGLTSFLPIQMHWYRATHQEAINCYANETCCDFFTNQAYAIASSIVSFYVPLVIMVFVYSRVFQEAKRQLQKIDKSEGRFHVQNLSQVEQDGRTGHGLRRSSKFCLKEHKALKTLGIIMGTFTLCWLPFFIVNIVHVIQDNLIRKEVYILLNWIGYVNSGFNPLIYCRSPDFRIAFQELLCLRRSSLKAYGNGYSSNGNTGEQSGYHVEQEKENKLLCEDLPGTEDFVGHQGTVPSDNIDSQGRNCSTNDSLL
# Ecoli growth – E. coli growth inhibition. Escherichia coli growth, OD600, 23 h; active compounds read low. 330,000 compounds, 0.21% hits. OD600 absorbance (concentration not given with the values);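 active means OD600 absorbance below the run mean of sample wells minus 3.6 SD, in any replicate, cut at about 0.56 in these data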;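 further: stock transfer was 300 nL into about 60 µL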
# Ecoli rRNA inh – selective bacterial rRNA inhibition in E. coli. GFP signal change (wild-type ribosome), % (no concentration beside the values). 350,000 compounds, 1.6% hits. E. coli WT GFP vs humanized-ribosome RFP mutants, fluorescence, 24 h; active compounds read low; DMSO median 0, no signal -100;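 active means significant combined selectivity score with lowered wild-type GFP, culture density cut under 30%, mutant RFP and density less affected; inactive means any of these conditions unmet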; further: one replicate is shown; some compounds called inactive have numbers as strong as hits
# HNF4A DNA FP – change in binding of human HNF4 alpha to DNA; AID 1224865; P41235; HNF4a-FITC DNA binding, fluorescence polarization, 1 h; 360,000 compounds, 0.3% hits; activity change, % at 10 µM; in the data active means activity change above about 30%, passing the limit was not always enough;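 further: controls were the assay level and a saturating level of protein; the project sought stronger binding though the title names inhibitors; some compounds called inactive have numbers as strong as hits; positive values seem to mean higher polarization but the record does not say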
# Target sequence (P41235 whole entry, looked up): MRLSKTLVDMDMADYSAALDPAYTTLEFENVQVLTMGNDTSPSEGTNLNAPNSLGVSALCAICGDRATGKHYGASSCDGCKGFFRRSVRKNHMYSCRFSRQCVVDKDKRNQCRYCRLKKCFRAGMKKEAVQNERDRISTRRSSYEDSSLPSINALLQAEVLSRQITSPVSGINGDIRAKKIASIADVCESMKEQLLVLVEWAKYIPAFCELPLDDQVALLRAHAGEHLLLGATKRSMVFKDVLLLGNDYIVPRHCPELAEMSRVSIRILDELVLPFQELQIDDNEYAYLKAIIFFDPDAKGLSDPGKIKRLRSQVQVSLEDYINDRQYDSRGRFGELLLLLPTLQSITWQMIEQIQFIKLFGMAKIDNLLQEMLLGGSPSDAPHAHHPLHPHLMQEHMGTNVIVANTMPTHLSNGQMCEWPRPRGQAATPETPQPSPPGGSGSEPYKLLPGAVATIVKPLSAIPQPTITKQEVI
# Ecoli rRNA inh OD600 – further read-out of Ecoli rRNA inh, marked with its call; OD600 change, %; measured here: OD600 growth;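 optical density of the mix in the first replicate; 0 = DMSO median and -100 = no signal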
# Ecoli rRNA inh RFP – recorded beside Ecoli rRNA inh, whose call it bears; RFP signal change, %; measured here: RFP humanized mutant strains;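 first replicate; 0 = DMSO median and -100 = no signal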
# Active calls of the source: *; i = inactive; ? = inconclusive; nt = not tested or not shown; & = joins results of further samples.
SMILES,UCH37 inh,ALR H2O2 inh,FGF22 binding,Beta2AR agonist,Ecoli growth,Ecoli rRNA inh,Ecoli rRNA inh OD600,Ecoli rRNA inh RFP,HNF4A DNA FP
Cc1c(NC(=O)c2ccc(C(=O)Nc3c(C)n(C)n(-c4ccccc4)c3=O)cc2)c(=O)n(-c2ccccc2)n1C,3.9,-21,i,9,0.68,8,9,-2.8,2.6
CCCCc1cc(=O)oc2cc(OCC(=O)Nc3ccccn3)ccc12,-88,6,i,-1,0.74,7,12,3.5,4.2
Clc1ccc(Cc2nn3c(Cn4nnc5ccccc54)nnc3s2)cc1,5.9,nt,nt,-1,0.7,nt,nt,nt,-3.1
COc1ccc(CNC(=O)C2CC(=O)N(C3CCCC3)C2)cc1 (configuration not stated),2.0,3,i,-1,0.68,8,7,1.7,-1.1
CC(=O)Oc1ccc(Nc2ccccc2)cc1,3.2,99*,i,-5,0.68,5,5,0.4,-2.5
Cc1cc(Cl)ccc1N(CC(=O)N=Nc1c(O)[nH]c2ccccc12)S(C)(=O)=O,3.1,-6,nt,-21,0.69,nt,nt,nt,3.9
O=C(CN(C(=O)CNC(=O)c1ccco1)c1cccc(F)c1)NC1CCCCC1,1.3,0,i,4,0.6,nt,nt,nt,4.8
O=C(CC1C(=O)NCCN1Cc1ccc(Cl)c(F)c1)NCC1CCOCC1 (configuration not stated),-2.3,-1,i,-15,0.7,2,-16,21,-5.5
Cc1cc(C(=O)NP(=O)(N2CCOCC2)N2CCOCC2)c(C)n1-c1ccc(Br)cc1,4.4,1,i,-2,0.7,0,-10,-1.4,-4.0
NNC(=O)Nc1cccc(C(F)(F)F)c1,1.4,1,nt,0,0.72,20,4,2.1,1.4

# Next section, overlapping the part above by two compounds.
SMILES,UCH37 inh,ALR H2O2 inh,FGF22 binding,Beta2AR agonist,Ecoli growth,Ecoli rRNA inh,Ecoli rRNA inh OD600,Ecoli rRNA inh RFP,HNF4A DNA FP
Cc1cc(C(=O)NP(=O)(N2CCOCC2)N2CCOCC2)c(C)n1-c1ccc(Br)cc1,4.4,1,i,-2,0.7,0,-10,-1.4,-4.0
NNC(=O)Nc1cccc(C(F)(F)F)c1,1.4,1,nt,0,0.72,20,4,2.1,1.4
CC(C)CCNC(=O)CCC(=O)NNc1nc2ccccc2c2nc(-c3ccccc3)nn12,-0.8,-9,nt,8,nt,nt,nt,nt,2.6
CCOc1ccccc1-n1c(SCC(=O)NC(C)CC)nnc1-c1ccoc1C (configuration not stated),0.5,5,nt,24,0.75,nt,nt,nt,-0.3
CCOC(=O)N1CCN(C(=O)CN(C)S(=O)(=O)c2ccc(OCC)cc2)CC1,0.6,-4,i,4,0.68,1,-1,3.2,0.1
C/C(=N/NC(=O)CNS(=O)(=O)c1ccc(C)cc1)c1cccc([N+](=O)[O-])c1,nt,-6,i,-3,nt,15,11,-1.4,0.7
COc1ccc(C2=CC(=O)C[C@H](c3ccc4c(c3)OCO4)C2)cc1,-3.5,-7,nt,-1,0.76,nt,nt,nt,-1.4
CCc1cc(=O)oc2cc(C)cc(OC(C)C(=O)NCCCN3CCOCC3)c12 (configuration not stated),-112,-8,i,9,0.65,3,3,0.8,1.7
CC(C)(C)NC(=O)C(OC(=O)c1ccco1)c1ccccc1F (configuration not stated),0.4,-15,i,7,0.68,7,4,0.6,-4.8
Cc1nnc(-c2ccco2)c2cn(-c3cccc(Br)c3)nc12,5.2,0,i,-26,0.69,5,8,0.4,-25
CC(=O)Nc1ccc(S(=O)(=O)NCCC(=O)N2CCCCC2)cc1,2.2,nt,i,2,0.69,4,0,-2.2,-1.1
Fc1ccc(-n2c(-c3ccc4ccccc4n3)n[nH]c2=S)cc1Cl,5.4,3,i,3,0.73,nt,nt,nt,-1.1
COC(=O)c1ccc(C2/C(=C(/O)c3ccc(OC)cc3)C(=O)C(=O)N2c2cc(C)on2)cc1 (configuration not stated),11,5,nt,6,0.73,nt,nt,nt,-3.1
CC(=O)Nc1ccc(S[C@@H](CCN2CC[C@H](C(C)(C)C)CCC2=O)c2ccccc2)cc1,1.0,97*,i,-3,nt,-10,-23,-9.7,2.6
O=C(COC(=O)c1ccc([N+](=O)[O-])s1)Nc1ccc(F)cc1,67*,-20,i,-4,0.61,-51,-81,-19,-0.9
CC1=C(C(=O)OCCCCCl)C(c2cc3c(cc2Br)OCO3)NC(=O)N1 (configuration not stated),nt,nt,i,11,nt,3,3,-0.5,0.5
O=C(O)CC(NNC(=O)c1ccccc1)C(=O)Nc1cccc([N+](=O)[O-])c1 (configuration not stated),1.5,14,i,9,0.72,15,10,2.6,-1.5
O=C(COC(=O)C1CC1)Nc1ccc(N=Nc2ccccc2)cc1,3.7,2,nt,0,0.72,nt,nt,nt,-1.3
O=C(C[C@H]1CC[C@@H]2[C@H](COC[C@@H](O)CN2Cc2cccc(F)c2)O1)NCC1CCCCC1,nt,nt,i,nt,nt,-1&-10,-4&-8,0.6&3.8,-0.2
COc1ccccc1NC(=O)CSc1nc2n[nH]c(C)c2c(=N)n1-c1ccccc1Cl,0.4,nt,nt,-3,0.74,nt,nt,nt,9.4
COc1cccc(NC(=O)CN(C)C(=O)c2cc(-c3ccccc3)nc3ccccc23)c1,-0.1,-3,i,15,0.66,-2,-6,2.4,1.0
COc1ccccc1CN1CCCC(N2CCN(c3ccc(F)cc3)CC2)C1 (configuration not stated),4.5,26,i,-4,0.62,12,20,1.7,4.9
CC(=O)Nc1ccc(S(=O)(=O)NC(C)C(=O)NCC(c2ccco2)N(C)C)cc1 (configuration not stated),-23,nt,i,-3,0.69,-1,-1,0.5,-1.7
CCOC(=O)c1ccc(NC(=O)c2c(N)n(C)c(=O)n(C)c2=O)cc1,1.6,5,nt,-8,0.69,nt,nt,nt,2.1
O=C(Nc1ccc(NC(=O)c2ccc([N+](=O)[O-])o2)cc1Cl)c1ccco1,4.4,nt,i,25,0.61,5,9,-2.3,-0.6
COc1c(C)cc(C(=O)C2CCCN(C(=O)c3cccc(F)c3)C2)cc1C (configuration not stated),1.0,-4,i,-1,0.66,-5,-2,-3.7,1.9
O=C1CC(c2ccccc2)C(C(=O)Nc2ccccc2F)N1 (configuration not stated),0.7,-13,nt,2,0.69,16,12,-0.3,3.1
CN(c1ccccc1)S(=O)(=O)c1cccc(C(=O)OCC(=O)Nc2ccc3[nH]c(=O)[nH]c3c2)c1,1.9,-5,i,8,0.61,-1,3,-1.7,1.7
COc1ccc(C(=O)Nc2cc(OC)ccc2OC)cc1,-5.5,-10,nt,-3,0.72,-2,-6,-1.1,2.2
COc1ccc(CNC(=O)CCN2C(=O)c3ccccc3C2=O)cc1,-0.2,3,i,4,0.65,13,4,-3.2,-3.0
O=C(NC1CCS(=O)(=O)C1)Oc1ccccc1 (configuration not stated),0.0,nt,nt,4,0.78,nt,nt,nt,-0.4
C[C@@H]1NS(=O)(=O)[C@H]2C[C@@H]3C=C[C@]2(O3)[C@H]1OC(=O)Nc1ccc(C(F)(F)F)cc1[N+](=O)[O-],5.0,0,i,-5,0.78,3,15,6.3,-3.1
COc1ccc(-n2nnnc2SCC(=O)NC2CCS(=O)(=O)C2)cc1 (configuration not stated),-0.2,-1,i,-3,0.65,4,4,-0.2,-0.7
CCOC(=O)Cc1csc(NC(=O)CN2CCOCC2)n1,1.4,-2,i,1,0.66,4,-5,-4.3,2.4
CCN(CC(=O)Nc1ccc2c(c1)OCCO2)C(=O)COc1cc(C)ccc1Cl,1.6,0,nt,-1,0.69,1,-13,0.6,2.9
CN(C)c1ccc(C2NCCS2)cc1 (configuration not stated),3.8,?,nt,1,0.64,nt,nt,nt,-2.6
COc1cc(Cl)c(C)cc1NC(=O)CSc1nnc(CCC(=O)O)c(=O)[nH]1,3.5,27,i,4,0.68,9,7,0.7,4.1
Cc1ccc(C(=O)C=CNNC(=O)c2ccccc2)cc1,nt,0,i,3,nt,-2,4,3.8,3.5
COc1ccc(C2C(C(=O)NCc3ccco3)c3ccccc3C(=O)N2C)cc1 (configuration not stated),-3.4,1,i,-8,0.68,8,-2,3.4,-1.0
Cc1ccc(C(=O)OCC(=O)Nc2cccc(Br)c2)s1,nt,nt,i,nt,nt,3,3,0.4,-1.7
Cc1ccc(Cl)cc1N1CCN(Cc2nc3c(c(=O)[nH]c(=O)n3C)n2Cc2ccccc2F)CC1,1.3,-2,i,2,0.72,-1,-3,0.2,1.7
c1cc(-c2cnc3cccnn23)c2cccnc2c1,nt,nt,i,nt,nt,-1,4,0.9,-4.3
O=C(Nc1ccc2c(c1)OCCO2)C1CCCN(S(=O)(=O)Cc2ccccc2)C1 (configuration not stated),4.4,-1,nt,1,0.68,nt,nt,nt,-2.8
CC(=O)N/C(=C\c1ccc(Cl)cc1)C(=O)O,6.5,1,i,-2,0.65,5,17,2.2,-1.3
CCCC(=O)N1CC(=O)Nc2ccc(C)cc2C1c1ccc(F)cc1 (configuration not stated),4.1,-3,i,-4,0.71,0,-2,-1.8,-0.6
Cc1cc(C(=O)Nc2ccc(N3CCOCC3)c(Cl)c2)c(C)o1,4.7,6,i,-5,0.66,-1,8,-0.1,2.4
COc1ccc(-n2cc(CNC3CCC(O)CC3)c(-c3cccc(F)c3)n2)cc1 (configuration not stated),2.1,-7,i,-5,0.64,-10,13,7.0,2.4
CN(C(=O)CSc1nnc(N)s1)C1CCCCC1,3.8,3,i,-6,0.73,5,9,-0.8,-1.0
COc1ccc(NC(=O)CCN2C(=O)c3ccncc3C2=O)cc1OC,0.4,-16,i,-2,0.67,8,1,-0.5,-0.1
COc1ccc(CCNC(=O)c2cc(-c3ccncc3)nc3ccc(S(=O)(=O)N4CCOCC4)cc23)cc1OC,5.5,-10,i,17,0.68,3,6,-3.7,3.0
Cc1ccc(S(=O)(=O)N2CCOCC2)cc1NC(=O)COc1ncnc2ccccc12,1.0,31,nt,4,0.67,nt,nt,nt,1.9
COc1ccc(C(C)=O)cc1COC(=O)CSCC(=O)Nc1ccc(C)cc1,1.0,2,i,-3,0.71,-7,-9,2.1,3.0
# Continued.
SMILES,UCH37 inh,ALR H2O2 inh,FGF22 binding,Beta2AR agonist,Ecoli growth,Ecoli rRNA inh,Ecoli rRNA inh OD600,Ecoli rRNA inh RFP,HNF4A DNA FP
O=C(Cc1cccs1)N1CCN(S(=O)(=O)c2ccc(Br)cc2)CC1,5.2,0,i,-8,0.72,-4,-17,-2.7,3.8
COCCCN(C(=O)CCOc1ccc(C(C)(C)C)cc1)c1c(N)n(Cc2ccccc2)c(=O)[nH]c1=O,3.3,-8,i,3,0.68,-1,0,0.7,0.7
COc1ccc(/C=C/C(=O)N(C)C2CCS(=O)(=O)C2)cc1OC (configuration not stated),-24,nt,i,11,0.68,6,3,-3.7,3.6
COc1cccc(C(=O)NC(=S)NCc2ccco2)c1,3.9,2,i,0,0.71,-18,-18,-0.2,1.4
Cn1nnnc1SCC(=O)N1c2ccccc2Sc2ccccc21,0.9,8,nt,12,0.71,nt,nt,nt,3.3
CCCNC(=O)C1CC(c2ccc(C(F)(F)F)cc2)=NO1 (configuration not stated),-1.8,-2,i,-6,0.68,5,5,4.1,0.5

# Marked active in ALR H2O2 inh, among the entries above:
SMILES,UCH37 inh,ALR H2O2 inh,FGF22 binding,Beta2AR agonist,Ecoli rRNA inh,Ecoli rRNA inh OD600,Ecoli rRNA inh RFP,HNF4A DNA FP
CC(=O)Oc1ccc(Nc2ccccc2)cc1,3.2,99*,i,-5,5,5,0.4,-2.5
CC(=O)Nc1ccc(S[C@@H](CCN2CC[C@H](C(C)(C)C)CCC2=O)c2ccccc2)cc1,1.0,97*,i,-3,-10,-23,-9.7,2.6

# Only part of the results is shown; the hit share may differ from the screen's.
